CtBP-E1A inh: qHTS Assay for Inhibitors of the CtBP/E1A Interaction; activity change, % (test concentration not listed); 0.49% of 340,000 active; AlphaScreen GST-E1A/His-CtBP binding, 1536-well; active compounds read low; control for the full effect not named in the record; AID 651724, 2012; CtBP / adenovirus E1A interaction (AlphaScreen); in the data active means activity change below about -65%; inconclusive means about -30% to -65%; inactive means above about -30%; note: % is set by controls: 0 for no effect and ±100 for the full control effect
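Homogeneous bead-based format: GST-tagged E1A captured on glutathione donor beads, His-tagged CtBP on nickel acceptor beads; compounds precede bead addition by 2 h at 37 °C.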
D2 ag: Beta-Arrestin HTS for Positive Allosteric Modulators of the Human D2 Dopamine Receptor: Agonists | 0.084% of 360,000 active | activation, % (no concentration beside the values) | AID 624465, 2012 | D(2) dopamine receptor (Homo sapiens), P14416 | DiscoveRx PathHunter D2 beta-arrestin, luminescence, 90 min; 100% = 57 uM dopamine signal; in the data active = activation above about 40%; inconclusive = about 15% to 40%; inactive = below about 15%; note: compound concentration not given in the record; the text of the record calls up to 30% inactive
Target sequence (P14416 whole entry, looked up): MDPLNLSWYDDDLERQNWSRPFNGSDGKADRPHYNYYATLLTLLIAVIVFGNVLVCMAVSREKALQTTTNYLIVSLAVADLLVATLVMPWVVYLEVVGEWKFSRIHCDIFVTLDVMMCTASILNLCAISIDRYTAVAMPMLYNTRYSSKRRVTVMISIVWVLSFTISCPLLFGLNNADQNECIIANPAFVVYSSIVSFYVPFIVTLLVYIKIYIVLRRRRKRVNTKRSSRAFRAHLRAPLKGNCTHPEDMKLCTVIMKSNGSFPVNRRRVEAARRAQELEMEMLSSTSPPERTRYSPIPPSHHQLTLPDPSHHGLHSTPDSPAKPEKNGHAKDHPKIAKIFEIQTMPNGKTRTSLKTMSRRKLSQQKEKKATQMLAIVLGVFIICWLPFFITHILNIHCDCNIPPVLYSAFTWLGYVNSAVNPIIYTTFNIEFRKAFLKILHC
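Agonist mode: compounds alone added to overnight-plated D2 PathHunter cells for 90 min at 37 C, with 57 uM final dopamine (EC100) defining full response. Beta-arrestin recruitment detected by chemiluminescent reagent, read after 1 h at ambient temperature.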
TRPML1 ag: qHTS for Agonists of the Human Mucolipin Transient Receptor Potential 1 (TRPML1); Mucolipin-1 (Homo sapiens), Q9GZU1; TRPML1-expressing cells, Ca2+ dye fluorescence, FDSS; host cell line not named in the record; reference of the full effect not given here; activation, % (no concentration beside the values); 0.12% of 410,000 active; AID 624414, 2012; in the data active = activation above about 50%; inconclusive = about 30% to 50%; inactive = below about 30%; note: 0% is about no effect; the text of the record puts the active cut at 80%
Target sequence (Q9GZU1 whole entry, looked up): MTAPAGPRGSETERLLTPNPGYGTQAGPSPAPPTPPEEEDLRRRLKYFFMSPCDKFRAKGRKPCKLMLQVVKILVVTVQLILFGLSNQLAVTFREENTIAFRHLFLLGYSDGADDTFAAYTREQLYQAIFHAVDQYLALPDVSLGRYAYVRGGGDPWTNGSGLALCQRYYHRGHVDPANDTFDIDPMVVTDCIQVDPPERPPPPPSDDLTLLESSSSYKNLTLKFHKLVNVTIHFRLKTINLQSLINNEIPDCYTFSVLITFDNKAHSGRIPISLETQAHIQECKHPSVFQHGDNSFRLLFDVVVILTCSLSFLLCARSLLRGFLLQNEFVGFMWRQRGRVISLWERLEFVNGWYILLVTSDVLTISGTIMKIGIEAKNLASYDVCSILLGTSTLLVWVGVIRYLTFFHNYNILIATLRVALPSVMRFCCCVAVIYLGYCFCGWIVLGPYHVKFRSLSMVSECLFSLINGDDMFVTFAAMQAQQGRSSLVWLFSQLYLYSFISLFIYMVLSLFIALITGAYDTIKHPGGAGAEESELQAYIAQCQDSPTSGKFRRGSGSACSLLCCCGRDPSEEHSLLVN
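Calcium fluorescence on an FDSS kinetic reader gave the read-out. Tet-induced TRPML1-DL cells were plated overnight, dye-loaded (Ca8 with quencher, 45-90 min, room temperature, dark), then read 110 s after compound addition, and again 110 s after 4uM final 54-4 (EC80).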
D2 PAM: Beta-Arrestin HTS for Positive Allosteric Modulators of the Human D2 Dopamine Receptor: Potentiators; 0.23% of 360,000 active; D(2) dopamine receptor (Homo sapiens), P14416; DiscoveRx D2 beta-arrestin cells, luminescence, 90 min; 100% = 57 uM dopamine signal; AID 624464, 2012; potentiation, % (test concentration not listed); active = potentiation of 50% or more; inconclusive = 30% to 50%; inactive = 30% or less;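 note: compound concentration not given in the record; tested on top of an EC20 dose of dopamine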
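PathHunter D2 cells, attached overnight at 37 deg C, received compound in DMSO plus dopamine at EC20 (50 nM final) for 90 min at 37 deg C. Beta-arrestin recruitment was read as luminescence after 1 h with detection reagent at ambient temperature.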
Six1-Eya2 blk: qHTS Assay for Inhibitors of the Six1/Eya2 Interaction; Homeobox protein SIX1 (Homo sapiens) + Protein phosphatase EYA2 (Homo sapiens), …; 0.56% of 360,000 active; AlphaScreen GST-Six1/His-Eya2 binding, biochemical; active compounds read low; control for the full effect not named in the record; activity change, % (concentration not given with the values); in the data active = activity change below about -65%; inconclusive = about -30% to -65%; inactive = above about -30%; note: % is set by controls: 0 for no effect and ±100 for the full control effect
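AlphaScreen luminescence read after one hour at 37 °C in darkness. Pin-transferred compounds met GST-Six1 and His-Eya2 protein (5X stock 250 nM/500 nM) plus glutathione donor and Ni-chelate acceptor beads (5X, 50 ug/mL).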
PINK1 expr mod: A Quantitative High throughput Screen to Identify Chemical Modulators of PINK1 Expression | PINK1 immunofluorescence, high-content cytometry, 24 h | Potency, µM (titrated, usually from 76.6 µM), for the others: top-dose activation (PINK1 increase), usual class: activators | 0.2% of 410,000 active; active = well fitted activation curve with a large enough effect; inconclusive = small, poorly fitted or top-dose-only effect; inactive = flat fitted curve, though single readings scatter; cell line not stated here;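 note: potency is the fitted concentration of half-maximal effect; % of control where 0% means no effect; nearly all actives have a fitted effect of over 65% in size; a mitochondrial uncoupler was the plate control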
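Measures PINK1 amount and localization on or inside mitochondria by immunofluorescence. Stable cells get compounds at 5 concentrations for 24 hours before fixation and staining; CCCP controls included.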
* marks the source's active call; other numbers are inactive results; ? = inconclusive; . = not tested or not shown; [ ] = remark or other dose. Compounds were not picked by outcome. Share with any hit: about 1.3%.

SMILES | CtBP-E1A inh | D2 ag | TRPML1 ag | D2 PAM | Six1-Eya2 blk | PINK1 expr mod
O=C(NCc1ccco1)/C(=C/c1cccc(C(F)(F)F)c1)c1nc2ccccc2[nH]1 | 7 | -3.9 | -0.6 | -30 | 0 | -1.4%
COc1cc(/C=N/N2CCN(Cc3ccccc3)CC2)cc(OC)c1OC | -2 | -3.5 | -0.6 | -9 | 8 | -0.5%
Cc1nc(NCc2ccco2)[nH]c(=O)c1CCC(C)C | -4 | 12 | 0.7 | 11 | -2 | 1.5%
Cc1ccc(-c2c(C)n([O-])c3c([n+]2=O)CCCCC3)cc1 | 6 | 1.9 | 0.0 | 13 | 3 | 1.1%
CN(C)C(CNC(=O)c1ccc(C(=O)c2ccccc2)cc1)c1ccccc1 (stereo not given) | 0 | -6.0 | -0.1 | -13 | 4 | -2.7%
C=CCN(C(=O)Cn1c(C(=O)OC)cc2oc(C)cc21)c1ccccc1 | 10 | -1.4 | 3.3 | -14 | -5 | ?
Cc1ccccc1-c1nc(CS(=O)CC(=O)NC2CCCCC2)c(C)o1 (stereo not given) | . | -9.6 | 0.6 | -12 | 3 | -0.5%
CC(=O)Nc1ccc(NC(=O)CC(C)n2ccnc2)cc1 (stereo not given) | 3 | 0.9 | -0.2 | -4 | 14 | 1.4%
Cc1noc(C)c1S(=O)(=O)N(C)C[C@H]1Oc2c(NC(=O)NC(C)C)cccc2C(=O)N([C@H](C)CO)C[C@@H]1C | 3 | -0.1 | -0.6 | -3 | -10 | -0.2%
COC(=O)c1ccc(CNC(=O)CCC(=O)N2CCOCC2)cc1 | 14 | -1.3 | -0.2 | -10 | 10 | 0.1%
CC(=O)c1ccc(OC(C)c2nc3ccccc3s2)cc1 (stereo not given) | 10 | 0.0 | 1.6 | -1 | 18 | -1.0%
CC1(C)CC(=O)C=C(Nc2cccc(O)c2)C1 | 6 | -0.2 | -1.5 | 8 | 5 | 1.8%
CCc1ccc(N(C(=O)c2csnn2)C(C(=O)NC(C)(C)C)c2ccncc2)cc1 (stereo not given) | 3 | -2.2 | 0.7 | 0 | 5 | 2.2%[38.3 µM]
CCCNC(=O)C1(C)CCN(Cc2cc(C)n(C)n2)C1 (stereo not given) | -6 | -3.8 | -0.4 | -9 | 3 | 1.6%
Cc1cc2oc(=O)cc(CN3CCCCC3C)c2cc1Cl (stereo not given) | -7 | -4.7 | . | 3 | -20 | 9.6%
O=C(CN1CCOCC1)Nc1nc2cc([N+](=O)[O-])ccc2s1 | -4 | -4.6 | -0.1 | -9 | -5 | 2.1%
CCCCc1nc2c(=O)[nH]c3ccccc3c2o1 | 0 | -1.9 | 0.2 | -6 | -5 | -2.7%
O=C(NCC(=O)N1CCN(S(=O)(=O)c2ccccc2F)CC1)c1ccc(Br)o1 | 0 | -1.5 | -0.4 | -17 | -2 | 4.3%
CCCc1cc2c(=O)c(-c3ccccn3)coc2cc1OC | 6 | 3.7 | 1.2 | -10 | 25 | 0.3%[38.3 µM]
O=c1[nH]c2ccccc2cc1-c1noc(-c2cccnc2)n1 | -2 | 0.4 | 0.1 | -2 | -4 | 8.2%[38.3 µM]
O=C(CSc1nc(-c2cccs2)cc(C(F)(F)F)n1)Nc1cc(OCC(F)(F)C(F)F)cc([N+](=O)[O-])c1 | -17 | 2.1 | 0.9 | 0 | -14 | 1.2%
CCN(Cc1ccccc1)C(c1cc2ccc(C)cc2[nH]c1=O)c1nnnn1CCOC (stereo not given) | -3 | -0.5 | -1.0 | -3 | 6 | -4.3%
O=C(O)/C=C/c1cccc(OCc2ccccc2)c1 | -11 | -2.0 | -0.7 | -3 | 4 | -0.3%
COc1cccc(NC(=O)C2(C)CCN2Cc2ccc(OC)c3ccccc23)c1 (stereo not given) | 0 | 5.1 | 0.2 | 0 | -3 | 0.2%
CCN1C[C@@H]2[C@@H]3C(=O)N(Cc4ccccc4)C(=O)[C@@H]3[C@](C)(C1=O)N2C(=O)c1ccc(C(F)(F)F)cc1 | . | -0.6 | 0.0 | -4 | -1 | -0.1%
O=C(CSc1nc2ccccc2[nH]1)NCCCn1ccnc1 | -9 | 0.6 | 0.6 | -5 | -5 | ?
COc1ccc(Cl)cc1S(=O)(=O)N1CCC(C(=O)NCCC2=CCCCC2)CC1 | -1 | -2.9 | 0.4 | -5 | 4 | 0.8%
CC(=O)Nc1ccc(C2=NNC(=NCC3CCCO3)SC2)cc1 (stereo not given) | -17 | -11 | 0.1 | -44 | -7 | -0.8%
Cc1cccc(NC(=O)CCNS(=O)(=O)c2ccc3[nH]c(=O)oc3c2)c1 | . | 3.5 | 0.1 | -3 | -1 | 0.3%
CCC(=O)N1CCN=C1SCc1ccccc1 | 6 | -0.8 | -0.6 | -7 | 3 | 0.4%
Cc1ccc(NC(=O)c2ccc(S(=O)(=O)NCc3cccnc3)cc2)cc1C | -3 | 3.2 | 1.4 | -8 | -9 | -0.8%
Cc1ccc2nc(C)c3c(c2c1)N(c1ccc(F)cc1)CC3 | 2 | 3.6 | 1.6 | -14 | 6 | -0.3%
CCCCn1c(=O)nc2n(-c3ccc(OC)cc3)c3ccccc3cc-2c1=O | -1 | -1.2 | 0.5 | 0 | 2 | 9.4%
Cn1c(Cl)cnc1C1CC(=O)c2cc(Cl)ccc2O1 (stereo not given) | 4 | -3.4 | 0.0 | -6 | 2 | -2.0%
CC(C)OC(=O)c1ccc(N2CCN(c3ccc(F)cc3)CC2)nc1 | . | 4.6 | 2.5 | -5 | -1 | 1.6%
C=CCn1c(SCc2nc(N)nc(N(C)C)n2)nnc1-c1cccnc1 | -4 | -2.4 | -0.3 | -1 | 3 | 0.6%
C=CCNC(=O)C12CC3(C)CC(C)(CC(C)(C3)C1)C2 | 8 | -0.5 | 0.1 | -3 | 5 | 1.1%
COc1ccc(CN2CCN(C3CCSCC3)CC2CCO)c(C)c1C (stereo not given) | -1 | -3.3 | 0.2 | -5 | -1 | -0.1%
COc1ccc(CCn2c(C)c(C(C)=O)c3cc(OC(=O)c4ccco4)ccc32)cc1OC | 18 | -3.4 | 1.0 | 2 | 7 | -0.3%
CN(Cc1ccc(OCC(O)CN2CCCCC2)cc1)Cc1ccnc2ccccc12 (stereo not given) | . | 0.2 | 0.7 | -8 | 5 | 0.2%
c1ccc(-c2c(-c3ccccc3)n(Cc3ccco3)c3ncnc(NCCCn4ccnc4)c23)cc1 | ? | -1.0 | 0.9 | 17 | ? | -2.0%
Cc1cc(C(F)(F)F)nc(-n2cc(-c3ccccc3)nn2)n1 | 4 | -0.4 | -0.3 | -3 | -3 | 2.4%
CCOc1ccc(OCc2cccc(C(=O)N(CC)CC)c2)cc1 | 4 | 2.0 | 0.5 | -4 | 3 | 9.9%
O=S1(=O)CCN2C(c3ccc4c(c3)CCCC4)=CSC2=N1 | -1 | 2.0 | 1.2 | -7 | -2 | 1.8%
COCCNC(=O)/C(C#N)=C/c1ccc(OCC(=O)NC2CCCCC2)cc1 | 2 | 2.6 | -0.3 | 16 | 0 | 1.9%
CCOC(=O)C1=C(CN2CCSCC2)NC(=O)NC1c1cccc([N+](=O)[O-])c1 (stereo not given) | 10 | -0.7 | -0.7 | -10 | 5 | 0.4%
COc1ccc(N(CC(=O)NC2CCCC2)C(=O)c2csnn2)cc1 | -1 | -2.9 | -0.8 | -6 | -2 | -3.1%
COc1ccccc1C(=O)NCC(C)(C)CN=C1NS(=O)(=O)c2ccccc21 | 7 | -0.4 | 0.1 | 1 | 11 | 1.0%
Cc1ccc(C(=O)CC(=O)c2ccccc2)cc1 | . | -6.8 | -0.2 | -30 | 10 | 9.0%
Cc1ccn(-c2cccc(-n3ccc(C)n3)n2)n1 | -12 | -7.1 | 0.3 | 8 | -6 | -2.8%
O=C(Oc1ccc(Cl)cc1)N1CCCCC1 | 13 | -1.6 | -0.2 | -4 | 7 | 2.9%[38.3 µM]
CSc1nc2nc3c(cc2c(=O)n1-c1cccc(C)c1)COC(C)(C)C3 | 2 | 3.7 | 0.7 | 4 | 5 | 1.6%
O=C(O)CCc1nnc(SCC(=O)Nc2ccc(Cl)c(C(F)(F)F)c2)[nH]c1=O | -19 | -3.5 | 0.9 | 2 | -1 | 2.2%
CCCS(=O)(=O)NC(=O)C1(C)CCCN(C(=O)c2ccc(C#N)cc2)C1 (stereo not given) | 2 | -4.0 | -0.1 | -7 | 0 | 2.7%
C=CCN1C=CC(=O)[C@@H](O)[C@H]1c1ccccc1Br | 6 | -0.9 | 3.1 | 1 | 2 | -0.9%
COc1ccc(CCNC(=O)C(=O)NCC2CCCO2)cc1OC (stereo not given) | 4 | 1.0 | 0.9 | -3 | 0 | 0.1%[38.3 µM]
CCCCCC(=O)Nc1cccc(C2=NOC3(C2)C[C@H](C(N)=O)N(C(=O)CC)C3)c1 (stereo not given in full) | . | -1.6 | 0.6 | -10 | 6 | -0.9%
O=C(NNC(=O)c1cccc2ccccc12)c1ccc(-c2ccccc2)cc1 | 5 | 2.4 | 2.0 | 6 | 0 | ?
Cc1cc(C(=O)CSc2nnc(-c3cccs3)o2)c(C)n1-c1ccccc1 | -4 | -2.9 | -0.6 | 4 | -8 | 3.0%
COc1ccc(NC(=O)CN2C(=O)NC(c3ccccc3)(c3ccccc3)C2=O)cc1 | -1 | -5.0 | 1.6 | -7 | -2 | 1.3%
CCCCCCN1C[C@H](O)[C@@H](n2cc(-c3ccc(F)cc3)nn2)C[C@@H]1c1ccccc1 | -4 | 0.4 | 1.4 | 6 | -5 | ?

Reprinted at random: 3 entries already listed, in no set order.
SMILES | CtBP-E1A inh | D2 ag | TRPML1 ag | D2 PAM | Six1-Eya2 blk | PINK1 expr mod
Cc1cc(C(=O)CSc2nnc(-c3cccs3)o2)c(C)n1-c1ccccc1 | -4 | -2.9 | -0.6 | 4 | -8 | 3.0%
CCCCc1nc2c(=O)[nH]c3ccccc3c2o1 | 0 | -1.9 | 0.2 | -6 | -5 | -2.7%
C=CCNC(=O)C12CC3(C)CC(C)(CC(C)(C3)C1)C2 | 8 | -0.5 | 0.1 | -3 | 5 | 1.1%

A draw from above in order of molar mass, rising:
SMILES | CtBP-E1A inh | D2 ag | TRPML1 ag | D2 PAM | Six1-Eya2 blk | PINK1 expr mod
C=CCN1C=CC(=O)[C@@H](O)[C@H]1c1ccccc1Br | 6 | -0.9 | 3.1 | 1 | 2 | -0.9%
COc1ccc(N(CC(=O)NC2CCCC2)C(=O)c2csnn2)cc1 | -1 | -2.9 | -0.8 | -6 | -2 | -3.1%
COc1ccc(NC(=O)CN2C(=O)NC(c3ccccc3)(c3ccccc3)C2=O)cc1 | -1 | -5.0 | 1.6 | -7 | -2 | 1.3%

Source: PubChem BioAssay
